# Bioassay records: PubChem, several laboratories
# Hsc70 ATP site: Hsc70 inhibitors, probe displacement, primary screen, biochemical, fluorescence polarization (AID 568); Hsc70 fluorescence polarization, probe displacement; higher % means a stronger effect; strong numbers were not always called active; 83,000 tested, under 10 active; Heat shock cognate 71 kDa protein (Homo sapiens); one-dose displacement, % at 20 µM; IC50 in µM for titrated hits;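 active means displacement above 50% without optical interference and an IC50 on retest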;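 further: ATPase domain with a fluorescein-tagged ATP probe; 0% = vehicle and 100% = excess ADP; read after one hour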
# MT1-MMP reporter: inhibitors of MT1-MMP promoter transcription, cell-based, luciferase reporter, luminescence (AID 618); MT1-MMP promoter luciferase reporter cells, luminescence; calls from a first round at 10 µM; hits with a dose series show EC50 in µM; 87,000 compounds, 0.62% hits;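 active means over half of the reporter light lost at 10 µM or EC50 under 50 µM; inactive means the rest and hits that failed the dose series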;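 further: actives suppress MT1-MMP promoter-driven transcription so potencies describe inhibitors; HT1080 fibrosarcoma cells; overnight exposure; toxic or luciferase-blocking compounds were not removed from the actives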
# WNV NS2B-NS3 inh: inhibitors of WNV NS2B-NS3 protease, primary screen, biochemical, fluorogenic substrate; fluorogenic substrate Ex360/Em465; hits give low values; z-score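 (tested at a level between 10 and 100 µM)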; 65,000 compounds, 0.18% hits; AID 577, 2007;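 active means z-score at -3 or under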;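 further: score is relative to mean and spread of the compound wells of a plate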
# Target sequence (P06935 1371-1501 limits assumed): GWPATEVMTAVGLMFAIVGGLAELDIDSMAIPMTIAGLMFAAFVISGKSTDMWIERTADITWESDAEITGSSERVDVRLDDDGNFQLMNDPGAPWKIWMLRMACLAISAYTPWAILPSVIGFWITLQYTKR
# Target sequence (P06935 1502-1679 limits assumed): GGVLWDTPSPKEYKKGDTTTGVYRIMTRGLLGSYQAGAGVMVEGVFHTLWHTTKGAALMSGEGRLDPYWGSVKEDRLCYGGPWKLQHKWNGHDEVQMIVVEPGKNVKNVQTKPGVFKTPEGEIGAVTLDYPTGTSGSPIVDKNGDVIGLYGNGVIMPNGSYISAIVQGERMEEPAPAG
# * hit, by the source's call; i = inactive; . = no result given; & = joins results of further samples.
# Fields: Hsc70 ATP site | MT1-MMP reporter | WNV NS2B-NS3 inh
Cc1cc(C)n(C(=O)CNC(=O)Cc2ccccc2)n1
    3.0% | i | -0.69
Cc1ccc(S(=O)(=O)NCC(C)NS(C)(=O)=O)cc1 (stereo unspecified)
    0.5% | i | .
O=C(CN1C(=O)c2ccccc2S1(=O)=O)N1CCOCC1
    5.1% | i | 2.4
CCCCCCOC(=O)C(C#N)c1nc2ccccc2nc1N1CCN(CC)CC1 (stereo unspecified)
    -9.9% | i | -0.43
COc1ccccc1-c1cc(-c2cc(Cl)ccc2O)n[nH]1
    1.1% | i | 0.02
CCCCc1[nH]c(=O)c(C#N)c2c1CCCC2
    7.4% | i | .
Cn1c(C(=O)N(Cc2ccccc2)Cc2cccs2)cc2sccc21
    0.9% | i | -0.19
COc1ccc(NC(=O)Nc2nnc(C(C)C)s2)cc1
    -4.3% | i | -1.2
O=C(CC(C(=O)O)N1CCOCC1)Nc1ccc(Cl)cc1 (stereo unspecified)
    0.3% | i | 0.4
Nc1c(C(=O)NC2CCCC2)c2nc3ccccc3nc2n1/N=C/c1cccnc1
    -3.0% | i | 0.23
NC(=S)NNc1cc(Cl)cc(Cl)c1
    -3.4% | i | .
CCOCCOc1nc2c(c(=O)n(C)c(=O)n2C)n1Cc1ccc(C)cc1
    3.5% | i | 0.69
CCOC(=O)C1CCN(c2c(NCc3ccc(C(=O)NC(C)CC)cc3)c(=O)c2=O)CC1 (stereo unspecified)
    -0.1% | i | 0.35
O=C(Cn1ncc2c(=O)oc3ccccc3c21)N1CCc2ccccc2C1
    -1.0% | i | -0.76
CCc1nc(SCC(=O)Nc2cc(C)on2)c2c(=O)n(C)c(=O)n(C)c2n1
    2.3% | i | 1.1
COc1ccc(N2CCN(C(=O)CSc3nc4c(c(=O)n(C)c(=O)n4C)n3C(C)C)CC2)cc1
    -5.1% | i | -0.91
CCCCCc1c(O)nc(SCC(=O)O)[nH]c1=O
    2.6% | i | .
CCCn1nc(C(=O)NCCc2ccc(S(N)(=O)=O)cc2)c2ccccc2c1=O
    -5.2% | i | 1.8
COc1ccc(NC(=O)CN2CCN(c3ccc(Cl)cc3)CC2)c(OC)c1
    -0.4% | i | -0.51
Cc1ccc2oc(=O)c3cnn(CC(=O)N(CCCN4CCOCC4)Cc4ccco4)c3c2c1
    3.8% | i | -0.59
CCCC(=O)Nc1ccc(NC(=O)c2cccc(OC)c2)nc1
    2.3% | i | 0.09
C=CCSc1nc2ccccc2n1Cc1nnc(-c2cccs2)o1
    0.1% | i | 1.9
COc1ccc(C(=O)N2CCN=C2c2ccccc2)cc1OC
    -2.8% | i | -0.66
CN(C)C=Nc1c(Br)cc(Br)c2nonc12
    -63% | i | 0.91
CCC(=O)N1CCc2cc(S(=O)(=O)NCCC(=O)N3CCN(c4ccccn4)CC3)ccc21
    3.2% | i | -0.34
CC(C)(C)NC(=O)C(c1ccccn1)N(C(=O)c1ccc2c(c1)OCCO2)C1CCCC1 (stereo unspecified)
    5.7% | i | 0.53
O=C(O)C1C2C=CC(O2)C1C(=O)NCc1ccc2c(c1)OCO2 (stereo unspecified)
    0.1% | i | -0.74
Cc1c(C#N)c2ccccc2n1CCOc1ccccc1F
    -7.1% | i | 1
COc1cc(S(=O)(=O)N2CCOCC2)cc(C(=O)c2nccn2C)c1OC
    5.8% | i | -1.2
Cc1ccc(N2CCN(S(=O)(=O)N(C)C)CC2)cc1Cl
    -1.1% | i | -0.49
CCOC(=O)N1CCN(c2cc(=O)n(-c3ccc(OCC)cc3)c(=O)[nH]2)CC1
    -4.8% | i | -0.14
Cc1c(C(=O)N2CCC(C)CC2)oc2ccc(S(=O)(=O)N3CCC4(CC3)OCCO4)cc12
    3.5% | i | .
COc1ccccc1C1C(C(=O)NCc2ccccc2)=C(C)Nc2ncnn21 (stereo unspecified)
    8.2% | i | 0.29
CCn1c(-c2c[nH]c3ccccc23)n[nH]c1=S
    -0.7% | i | -0.83
COc1ccccc1N=C(C)C1=C(O)COC1=O
    2.6% | i | .
COc1ccc2c(c1OC)C(=O)OC2CC(=O)c1ccc(O)cc1 (stereo unspecified)
    -5.0% | i | -1.2
CC(=O)Nc1ccc(C(=O)Nc2ccc(S(=O)(=O)NCC3CCCO3)cc2)cc1 (stereo unspecified)
    1.0% | i | -1.1
CC(=O)c1ccc(OCC(C)C)c(CN2CCCCC2)c1
    0.6% | i | 0.4
CCCCCCn1c(CN2CCCCC2)nc2c1c(=O)n(C)c(=O)n2C
    -6.9% | i | 0.52
COC(=O)c1cccc(NC(=O)Cc2coc3cc(OC)ccc23)c1
    -1.7% | i | -1

# Fetched by compound from the entries so far (two):
# Fields: Hsc70 ATP site | MT1-MMP reporter | WNV NS2B-NS3 inh
CC(=O)Nc1ccc(C(=O)Nc2ccc(S(=O)(=O)NCC3CCCO3)cc2)cc1 (stereo unspecified)
    1.0% | i | -1.1
CCOC(=O)N1CCN(c2cc(=O)n(-c3ccc(OCC)cc3)c(=O)[nH]2)CC1
    -4.8% | i | -0.14

# Reformatted: results already given
CCn1c(-c2c[nH]c3ccccc23)n[nH]c1=S
  Hsc70 ATP site = -0.7%
  MT1-MMP reporter = i
  WNV NS2B-NS3 inh = -0.83
COc1ccccc1N=C(C)C1=C(O)COC1=O
  Hsc70 ATP site = 2.6%
  MT1-MMP reporter = i
  WNV NS2B-NS3 inh = .
COc1ccc2c(c1OC)C(=O)OC2CC(=O)c1ccc(O)cc1 (stereo unspecified)
  Hsc70 ATP site = -5.0%
  MT1-MMP reporter = i
  WNV NS2B-NS3 inh = -1.2
CC(=O)Nc1ccc(C(=O)Nc2ccc(S(=O)(=O)NCC3CCCO3)cc2)cc1 (stereo unspecified)
  Hsc70 ATP site = 1.0%
  MT1-MMP reporter = i
  WNV NS2B-NS3 inh = -1.1

# (more compounds)
# Fields: Hsc70 ATP site | MT1-MMP reporter | WNV NS2B-NS3 inh
CCOC(=O)N1CCN(Cc2nc3c(c(=O)n(C)c(=O)n3C)n2Cc2ccccc2)CC1
    -2.3% | i | -0.82
COc1ccccc1NCC(O)Cn1c2ccccc2c2ccccc21 (stereo unspecified)
    2.3% | i | .
CNc1nc(CC(C)=O)ns1
    -5.1% | i | 0.38
CC(C)C(CCN1C(=O)c2ccccc2C1=O)c1ccco1 (stereo unspecified)
    -1.2% | i | .
Nn1c(SCC(=O)Nc2ccc3c(c2)OCO3)nnc1-c1ccccc1
    7.0% | i | .
Nc1c(C(=O)NCCN2CCOCC2)c2nc3ccccc3nc2n1-c1cccc(F)c1
    5.3% | i | 1.8
CCC1SC2=NC(C)=C(C(=O)OCCOC)C(c3ccc(C(=O)OC)cc3)N2C1=O (stereo unspecified)
    4.1% | i | -0.4
CCOC(=O)c1[nH]c(C)c(C(=O)N2CCN(C(=O)OCC)CC2)c1CC
    -3.7% | i | 0.4
CC(C)(Oc1ccc(Cl)cc1)C(=O)Nc1ccc2oc(-c3ccncc3)nc2c1
    -0.6% | i | 1.6
CC1(C)CC2CC(C)(CN2C(=O)CN2C(=O)c3ccccc3C2=O)C1 (stereo unspecified)
    -1.1% | i | -1.2
CC(=O)NC(CCS(C)(=O)=O)C(=O)Nc1ccccc1C (stereo unspecified)
    2.8% | i | 0.69
O=C(COC(=O)c1ccccc1Nc1cccc(C(F)(F)F)c1)NCc1ccco1
    -4.0% | i | .
COc1ccccc1C(=O)Nc1ccon1
    -2.0% | i | .
COc1ccc(N2CCN(C(=O)CCn3nnc4ccccc43)CC2)cc1
    -3.2% | i | -1
CCCN1C(=O)C(O)(CC(=O)c2cccc(OC)c2)c2ccccc21 (stereo unspecified)
    2.8% | i | -0.27
O=C(CC(c1ccccc1)c1cc(Cl)ccc1O)N1CCOCC1 (stereo unspecified)
    -2.3% | i | 0.84
Cc1ccc(C(=O)Nc2nc3ccccc3c(=O)s2)cc1
    -5.1% | i | -0.62
COc1cc(OC)cc(-c2nnc(SCc3c(F)cccc3Cl)o2)c1
    -2.0% | i | -0.56
CS(=O)(=O)N(CC(=O)NCC1CCCO1)c1ccc(F)c(Cl)c1 (stereo unspecified)
    0.2% | i | 0.15
O=C(CSc1nnc(-c2cccs2)n1-c1ccccc1)N1CCCC1
    -7.0% | i | -0.18
CC(C)C(=O)Nc1ccc(N2CCN(C(=O)c3cccs3)CC2)cc1
    4.7% | i | -0.33
COc1ccc(C2CC(C(F)(F)F)n3nc(C(=O)NCc4cn(C)nc4C)c(Cl)c3N2)cc1 (stereo unspecified)
    3.6% | i | 0.16
CCOC(=O)C1=C(C)NC(=O)NC1c1ccc(OCC(N)=O)cc1 (stereo unspecified)
    1.3% | i | .
CCc1ccc(N(C(=O)CCC(=O)Nc2cc(C)on2)C(C(=O)NC2CCCC2)c2ccco2)cc1 (stereo unspecified)
    -2.7% | i | .
Cc1cccc(-n2nnnc2SC(C)C(=O)NCCC2=CCCCC2)c1 (stereo unspecified)
    -2.1% | i | 0.21
CCN1CCN(C(=O)C2CCC(CNS(=O)(=O)c3ccccc3)CC2)CC1 (stereo unspecified)
    2.5% | i | .
O=C1N=C(N2CCOCC2)S/C1=C1\C(=O)N(Cc2ccccc2)c2ccccc21
    1.5% | i | -0.87
CCOC(=O)c1c(-c2ccccc2)oc2cc(CN(C)C)c(O)c(CN(C)C)c12
    9.7% | i | .
CCC1CCCCN1C(=O)CSc1nnc(-c2ccc3c(c2)OCCO3)o1 (stereo unspecified)
    -3.6% | i | 0.14
COc1ccc(C)cc1S(=O)(=O)N1CCN(S(=O)(=O)c2cc(C)ccc2OC)CC1
    4.2% | i | 0.43
CCOCCCNC(=O)C(c1ccc(C)cc1)N1CCOCC1 (stereo unspecified)
    4.4% | i | -0.09
CCOC(=O)c1c(N)sc(C(=O)N2CCCC2)c1C
    7.4% | i | 0.78
Cc1nn(C(C)C(=O)N2CCCCC2)c(=O)c2c1sc1ccccc12 (stereo unspecified)
    0.1% | i | -0.51
CCN(CC)S(=O)(=O)c1cc([N+](=O)[O-])ccc1NNC(=O)Nc1ccccc1
    -2.2% | i | .
CNC(=O)c1ccc(-c2ccc(OC)cc2)s1
    -2.4% | i | .
O=C(CCn1c(=O)[nH]c2ccsc2c1=O)N1CCN(c2cccc(Cl)c2)CC1
    0.3% | i | 1.7
O=C(COC(=O)c1ccccn1)NCCCc1ccccc1
    0.4% | i | 1.7
COc1cccc(-c2csc(N3CCN(C(=O)C4CCCCC4)CC3)n2)c1
    -7.4% | i | 0.79
c1ccc(OCCCCn2cnc3ccccc32)cc1
    -8.7% | i | -0.91
CCn1c(CC(=O)Nc2ccc(C)c(Cl)c2)nnc1SCC(=O)Nc1nc(C)cs1
    -1.4% | i | .
Cc1onc(-c2ccncc2)c1C(=O)O
    3.9% | i | 0.69
CC1CC(C)CN(S(=O)(=O)c2ccc(C(=O)Nc3nnc(-c4cccs4)o3)cc2)C1 (stereo unspecified)
    -9.3% | i | -0.5
Cc1cccc(OCc2nnc(SCC(=O)NCCc3ccccc3)o2)c1
    4.8% | i | 1.2
CC1CCCCC1NC(=O)C1CCN(S(=O)(=O)N2CCCCCC2)CC1 (stereo unspecified)
    -2.8% | i | 0.35
Nc1c(C(=O)O)nnn1Cc1ccccc1
    -0.3% | i | .
CCOc1ccccc1Nc1nc(N)nc(CSc2nncn2C)n1
    -6.4% | i | 0.98
N#CC1(C#N)CC(C=O)=C(N)C1(C#N)CC(=O)c1ccc(F)cc1 (stereo unspecified)
    12% | i | .
c1ccc(C2=NC(c3ccccc3)N=C(c3ccccc3)N2)cc1
    -5.5% | i | .
O=C(O)CCNc1ccc2c(c1)OCCO2
    2.7% | i | -0.59
COc1ccc(C2=NOC(C(=O)Nc3cc(C)nn3-c3ccccc3)C2)cc1OC (stereo unspecified)
    3.4% | i | -0.28

# The listing continues.
# Fields: Hsc70 ATP site | MT1-MMP reporter | WNV NS2B-NS3 inh
O=C1CC(SCc2nc3ccccc3[nH]2)C(=O)N1c1ccc(Cl)cc1 (stereo unspecified)
    3.7% | i | .
Cc1ccc(CN2CCN(C(=O)C3CCC3)CC2)cc1
    6.9% | i | 0.12
C/C=C/c1ccc(OCCCCN2C(=O)NC(C)(C)C2=O)c(OC)c1
    2.9% | i | -0.33
COc1ccc2occ(C(C)=O)c2c1
    1.1% | i | .
COc1ccccc1-c1nnc2sc(-c3ccc(N(C)C)cc3)nn12
    -4.1% | i | -0.6
CCCc1cc(=O)oc2cc(OCC(=O)OC)cc(OCC(=O)OC)c12
    -6.3% | i | 0.73
N#Cc1ccc(CSc2nnc(Cc3cccs3)n2Cc2ccco2)cc1
    0.9% | i | 0.92
Nc1nc(Cl)nc2c1ncn2[C@H]1C[C@H](O)[C@@H](CO)O1
    -3.8% | i | 0.03&0.06
CC(=O)N(CCO)Cc1cc2cc(C)cc(C)c2[nH]c1=O
    2.8% | i | 0.27
COCC(C)n1c(C)cc(C(=O)COC(=O)c2nc3nc(C)cc(C)n3n2)c1C (stereo unspecified)
    -4.7% | i | -0.43
CCOc1ccc(S(=O)(=O)N2c3ccccc3CC2C)cc1 (stereo unspecified)
    -4.7% | i | .
CCn1cc(C(=O)NCCCOC)c2cc(OC)c(OC)cc2c1=O
    3.1% | i | -2.1
COCCNC(=O)C(OC(=O)CC1Sc2ccccc2NC1=O)c1ccncc1 (stereo unspecified)
    -3.1% | i | 1.5
COC(=O)NC(NC(=S)Nc1ccc([N+](=O)[O-])cc1)C(Cl)(Cl)Cl (stereo unspecified)
    3.1% | i | .

# Not all compounds are listed. The share of hits here may be higher or lower than overall.
